# TRPML1 inh: qHTS for Inhibitors of the Human Mucolipin Transient Receptor Potential 1 (TRPML1) | activity change, negative = inhibition, % (no concentration beside the values) | 390,000 tested, 0.02% active | AID 624415, 2012 | Mucolipin-1 (Homo sapiens), Q9GZU1 | TRPML1-inducible cells, Ca2+ dye fluorescence, FDSS; active compounds read low; inhibition of EC80 agonist-evoked calcium signal; in the data active means activity change below about -50%; inconclusive means about -30% to -50%; inactive means above about -30%;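 also: stimulus is agonist 54-4 at its EC80 concentration; % is scaled to controls: 0 for no effect and ±100 for the full control effect; compound concentration not given in the record; the text of the record puts the active cut at -80%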
# Target sequence (Q9GZU1 whole entry, looked up): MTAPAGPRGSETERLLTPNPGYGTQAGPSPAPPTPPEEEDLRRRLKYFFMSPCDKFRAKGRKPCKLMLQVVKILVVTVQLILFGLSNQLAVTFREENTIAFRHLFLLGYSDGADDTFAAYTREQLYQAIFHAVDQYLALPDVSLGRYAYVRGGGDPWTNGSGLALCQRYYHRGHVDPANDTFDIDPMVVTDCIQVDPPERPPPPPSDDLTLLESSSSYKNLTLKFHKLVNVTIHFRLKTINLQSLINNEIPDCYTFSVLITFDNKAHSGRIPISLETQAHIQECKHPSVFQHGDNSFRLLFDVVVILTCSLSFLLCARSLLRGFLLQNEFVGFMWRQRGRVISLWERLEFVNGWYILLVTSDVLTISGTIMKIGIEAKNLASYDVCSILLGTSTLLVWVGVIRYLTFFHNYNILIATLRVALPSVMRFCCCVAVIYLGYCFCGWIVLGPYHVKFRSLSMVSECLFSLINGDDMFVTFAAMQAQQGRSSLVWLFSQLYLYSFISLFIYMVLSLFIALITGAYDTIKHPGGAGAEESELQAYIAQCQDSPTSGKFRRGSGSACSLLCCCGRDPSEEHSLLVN
#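 Tet-induced TRPML1-DL cells loaded with Ca8 no-wash calcium dye were read kinetically on FDSS. Compound addition was followed by EC80 agonist 54-4 (4 uM final); inhibition was read over 110 s.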
# D2 ag: Beta-Arrestin HTS for Positive Allosteric Modulators of the Human D2 Dopamine Receptor: Agonists; DiscoveRx PathHunter D2 beta-arrestin, luminescence, 90 min; 100% = 57 uM dopamine signal; AID 624465, 2012; D(2) dopamine receptor (Homo sapiens), P14416; activation, % (concentration not given with the values); 360,000 tested, 0.084% active; in the data active = activation above about 40%; inconclusive = about 15% to 40%; inactive = below about 15%; also: compound concentration not given in the record; the text of the record calls up to 30% inactive
# Target sequence (P14416 whole entry, looked up): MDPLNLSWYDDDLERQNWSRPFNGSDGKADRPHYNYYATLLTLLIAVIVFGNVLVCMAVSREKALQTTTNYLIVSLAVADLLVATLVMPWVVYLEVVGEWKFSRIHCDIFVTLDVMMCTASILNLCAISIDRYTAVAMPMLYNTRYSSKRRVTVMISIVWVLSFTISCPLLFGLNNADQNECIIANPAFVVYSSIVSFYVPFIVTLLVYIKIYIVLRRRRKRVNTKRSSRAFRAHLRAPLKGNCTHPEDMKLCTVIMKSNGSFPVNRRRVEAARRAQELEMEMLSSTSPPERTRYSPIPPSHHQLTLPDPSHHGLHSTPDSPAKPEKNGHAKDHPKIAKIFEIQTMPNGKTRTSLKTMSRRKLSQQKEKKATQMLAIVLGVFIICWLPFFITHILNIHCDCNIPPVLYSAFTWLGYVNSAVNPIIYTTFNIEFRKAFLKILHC
#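 Agonist mode: compounds alone added to overnight-plated D2 PathHunter cells for 90 min at 37 C, with 57 uM final dopamine (EC100) defining full response. Beta-arrestin recruitment detected by chemiluminescent reagent, read after 1 h at ambient temperature.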
# Six1-Eya2 blk: qHTS Assay for Inhibitors of the Six1/Eya2 Interaction; activity change, % (no concentration beside the values); AlphaScreen GST-Six1/His-Eya2 binding, biochemical; active compounds read low; control for the full effect not named in the record; 360,000 tested, 0.56% active; Homeobox protein SIX1 (Homo sapiens) + Protein phosphatase EYA2 (Homo sapiens), …; in the data active = activity change below about -65%; inconclusive = about -30% to -65%; inactive = above about -30%; also: % is scaled to controls: 0 for no effect and ±100 for the full control effect
#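 Compounds are tested against tagged Six1 and Eya2 proteins bridged by glutathione donor and nickel acceptor beads; after a one-hour incubation at 37 °C without light, AlphaScreen emission is recorded.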
# TRPML1 ag: qHTS for Agonists of the Human Mucolipin Transient Receptor Potential 1 (TRPML1) | 410,000 tested, 0.12% active | TRPML1-expressing cells, Ca2+ dye fluorescence, FDSS; host cell line not named in the record; reference of the full effect not given here | AID 624414, 2012 | activation, % (no concentration beside the values); in the data active = activation above about 50%; inconclusive = about 30% to 50%; inactive = below about 30%; also: 0% is about no effect; the text of the record puts the active cut at 80%
#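 Calcium fluorescence on an FDSS kinetic reader gave the read-out. Tet-induced TRPML1-DL cells were plated overnight, dye-loaded (Ca8 with quencher, 45-90 min, room temperature, dark), then read 110 s after compound addition, and again 110 s after 4uM final 54-4 (EC80).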
# PINK1 expr mod: A Quantitative High throughput Screen to Identify Chemical Modulators of PINK1 Expression | Potency, µM (doses to about 76.6 µM), without a hit: top-dose activation (PINK1 increase), actives largely listed as activators | PINK1 immunofluorescence, high-content cytometry, 24 h | AID 624263, 2012 | 410,000 tested, 0.2% active; active = well fitted activation curve with a large enough effect; inconclusive = small, poorly fitted or top-dose-only effect; inactive = flat fitted curve, though single readings scatter; cell line not stated here;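 also: potency is read from the fitted curve at half-maximal effect; % of control where 0% means no effect; nearly all actives have a fitted effect of over 65% in size; a mitochondrial uncoupler was the plate control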
#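 Stable cell line treated 24 h with compounds at 5 concentrations (CCCP controls), then fixed and immunostained for PINK1 plus nuclear and cell stains; PINK1 immunofluorescence quantified by laser-scanning microplate cytometry.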
# D2 potentiator: Beta-Arrestin HTS for Positive Allosteric Modulators of the Human D2 Dopamine Receptor: Potentiators. D(2) dopamine receptor (Homo sapiens), P14416. DiscoveRx D2 beta-arrestin cells, luminescence, 90 min; 100% = 57 uM dopamine signal. potentiation, % (concentration not given with the values). 360,000 tested, 0.23% active; active = potentiation of 50% or more; inconclusive = 30% to 50%; inactive = 30% or less;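 also: compound concentration not given in the record; tested on top of an EC20 dose of dopamine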
#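 PathHunter D2 cells, attached overnight at 37 deg C, received compound in DMSO plus dopamine at EC20 (50 nM final) for 90 min at 37 deg C. Beta-arrestin recruitment was read as luminescence after 1 h with detection reagent at ambient temperature.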
# The depositor's hits bear a star; ? = inconclusive; . = no result given; [ ] = remark or other dose.
SMILES,TRPML1 inh,D2 ag,Six1-Eya2 blk,TRPML1 ag,PINK1 expr mod,D2 potentiator
Cc1cc(C)cc(-n2nnc(C(=O)NCc3ccco3)c2N)c1,18,-3.4,-6,2.4,-0.6%,-16
O=C(COC(=O)CCNS(=O)(=O)c1ccccc1)NNC(=O)c1ccccc1,-17,-3.0,6,0.8,-1.1%,-7
CCOc1ccc(NC(=O)CSc2nnc(-c3ccncc3)n2-c2ccccc2)cc1,6,.,.,1.3,9.8%,.
COc1ccc(N(Cc2cc3ccccc3[nH]c2=O)C(=O)c2cccc(Cl)c2)cc1,-10,.,.,1.1,-1.3%,.
CN(C)N=Nc1ccc(-c2cn(Cc3ccccc3)cn2)cc1,3,-0.6,-18,-0.2,-0.2%,-4
CC(CSc1n[nH]c(=S)s1)c1ccccc1 (stereo not given),4,-6.5,-12,-0.8,-0.2%,-9
C[C@@H]1CN([C@H](C)CO)C(=O)CCCn2nncc2CO[C@H]1CN(C)Cc1ccc(C(=O)O)cc1,.,-0.8,2,.,1.4%,.
CCOc1ccc(C(=O)Cc2ccccc2)cc1,-2,0.8,30,2.3,-0.9%,-3
CCOc1ccc(-c2nonc2NC(=O)c2oc3ccc(C)cc3c2C)cc1OCC,11,.,.,0.6,0.1%,.
O=C(c1ccco1)n1nc(-c2ccccc2)nc1NCc1ccco1,18,-1.9,7,3.1,1.8%,-10
Cc1cc(SCC(=O)c2cccs2)nc2ccccc12,9,-16,26,5.1,8.6%,-17
C=CC(=O)Nc1ccc(Br)cc1,-11,-0.6,-2,0.8,3.7%,-25
CCC1CCCCN1CCCNC(=O)CN1C(=O)COc2ccc(S(=O)(=O)N3CCC(C)CC3)cc21 (stereo not given),6,-5.3,0,-0.5,-0.6%,-9
C1CCc2nnc(C3CC3)n2CC1,6,-4.1,9,1.2,0.2%,-3
CCNC(=S)N(Cc1cc2cc(C)cc(C)c2[nH]c1=O)C1CCCC1,10,1.4,0,1.7,?,-4
COc1ccc(OC)c(NC(=O)CSc2nc(=O)n(CCN(C)C)c3c2CCC3)c1,4,.,.,-0.8,1.3%,.
CCOc1ccc(C2C(C(=O)OC)=CN(C(C)c3ccccc3)C=C2C(=O)OC)cc1 (stereo not given),-7,-9.3,38,0.7,-0.7%,-2
COc1ccc(S(=O)(=O)N2CCCCC2c2cc(C(=O)Nc3ccccc3Cl)no2)cc1 (stereo not given),.,-4.5,4,-0.1,2.3%,-10
CCc1cc(C(=O)NC2CCCc3c2cnn3-c2ccc(F)cc2F)no1 (stereo not given),0,-2.2,-3,-0.3,2.9%,-9
O=C(CCc1ccccc1)Nc1ccccc1[N+](=O)[O-],2,-0.7,-23,-0.8,0.6%,1
Cc1ccc(-c2csc(NC(=O)COc3ccc(N(C)S(=O)(=O)c4ccc(C)cc4)cc3)n2)cc1,-9,1.7,-8,0.0,-0.7%,-2
CCOC(=O)c1cccc(S(=O)(=O)N(CCO)Cc2cc3cc(OC)c(OC)cc3[nH]c2=O)c1,24,-2.4,0,-0.7,5.7%[38.3 µM],-4
Cc1ccc(C2=NS(=O)(=O)N(C)C(C(=O)N(C)C3CCCCC3)=C2)cc1,?,-4.9,-16,-0.4,1.1%,-7
Cc1ccc(SCCC(=O)NC(C(C)C)C(C)C)cc1,-15,-5.8,-3,1.2,0.1%,-12
CCOC(=O)C1CCCN(C(=O)c2ccc(-c3ccccc3)cc2)CC1 (stereo not given),.,1.1,-1,-1.0,2.7%,-3
CCCn1c(CCC(=O)Nc2cc(Cl)c(OC)cc2OC)nc2cccnc21,25,.,.,0.6,-0.6%,.
O=C(Nc1nnc(C2=COCCO2)o1)c1ccc(Cl)cc1,10,-1.6,-22,-0.3,4.0%,-23
Cc1cc(C(=O)O)ccc1N/C=C1\CCCC(C)C1=O (stereo not given),-3,-2.8,8,0.8,2.3%,-25
CCOc1ccccc1/C=N\Nc1cnn(Cc2ccccc2)c(=O)c1Cl,-10,11,-3,3.4,0.0%,-2
Cc1cc(N2CCN(c3ccccc3)CC2)nc(-c2ccccc2)n1,-14,-4.7,-7,-0.1,2.3%,-6

# Reprinted at random: 4 entries already listed.
SMILES,TRPML1 inh,D2 ag,Six1-Eya2 blk,TRPML1 ag,PINK1 expr mod,D2 potentiator
Cc1ccc(-c2csc(NC(=O)COc3ccc(N(C)S(=O)(=O)c4ccc(C)cc4)cc3)n2)cc1,-9,1.7,-8,0.0,-0.7%,-2
CCOC(=O)c1cccc(S(=O)(=O)N(CCO)Cc2cc3cc(OC)c(OC)cc3[nH]c2=O)c1,24,-2.4,0,-0.7,5.7%[38.3 µM],-4
Cc1ccc(SCCC(=O)NC(C(C)C)C(C)C)cc1,-15,-5.8,-3,1.2,0.1%,-12
CCOC(=O)C1CCCN(C(=O)c2ccc(-c3ccccc3)cc2)CC1 (stereo not given),.,1.1,-1,-1.0,2.7%,-3

# Remaining list, next part.
SMILES,TRPML1 inh,D2 ag,Six1-Eya2 blk,TRPML1 ag,PINK1 expr mod,D2 potentiator
O=C(Nc1cccc(-c2cccc(F)c2)c1)C1CCN(Cc2ccc(CO)o2)CC1,1,0.4,-4,0.1,1.0%,-29
O=C(CN1C(=O)NC2(CCCCCC2)C1=O)Nc1ccc(Br)cc1Br,0,-0.5,4,0.2,-0.5%,2
CCOc1ccc2c(c1)S/C(=C\c1cccs1)C(=O)N2,.,2.1,0,.,?,-10
Cc1cc(C)c(C#N)c(=N)o1,-3,-3.8,8,0.3,-1.4%,-1
CN(CCNC(=O)Cn1c(=O)sc2ccccc21)Cc1ccccc1,-7,-8.2,0,0.6,0.1%,-12
Cc1ccccc1C(=O)NC1CCSC1=O (stereo not given),95,1.5,9,-0.8,-0.8%,-9
CNC(=O)Cn1c(=O)n(C)c2ccccc21,-10,-15,4,-0.2,1.9%,-3
CCOc1ccc(NS(=O)(=O)c2ccc3[nH]cc(C(=O)NCc4ccco4)c(=O)c3c2)cc1,-5,.,.,1.7,6.9%,.
Cc1cc(C)c(S(=O)(=O)Nc2c(C)n(C)n(-c3ccccc3)c2=O)cc1[N+](=O)[O-],?,1.9,7,3.5,-2.1%,3
COc1ccccc1CNc1cc(C)ccn1,4,-2.0,1,0.6,6.4%,-7
CCOC(=O)Nc1ccc(C)cc1C,15,-0.9,7,-0.1,-0.7%,-12
CCCn1nc(C(=O)NNC(=O)c2cccc(C)c2)c2ccccc2c1=O,8,0.4,3,0.0,-0.8%,7
CCCCN(C(=O)COC(=O)C1(c2ccccc2)CC1)c1c(N)n(CCC)c(=O)[nH]c1=O,-9,0.8,2,0.0,1.4%,-3
COc1ccc(/C=C2\C(=O)NCC(=O)N2Cc2ccccc2)cc1,-1,-1.4,13,-0.7,7.2%,27
CC(C)(C)OC(=O)C[C@@H]1C/C=C\C[C@H](CC(=O)NCCO)C(=O)N[C@@H](Cc2ccccc2)COC1=O,15,-2.0,1,0.1,-0.5%,-2
C=CCn1c(=O)c2ccccc2n2c(SCc3nc4ccccc4s3)nnc12,15,0.4,-5,1.9,0.1%,-3
NC(=O)CSc1nnc(-c2ccco2)n1N,2,-1.0,23,0.4,3.3%[38.3 µM],-6
COc1ccc(N2CCN(C(=O)c3ccc(NC(=O)c4nsc5ccccc45)cc3)CC2)cc1,0,.,.,0.9,0.4%,.
Cc1ccccc1CN(C)Cc1cc(=O)oc2c(C)c(C)ccc12,72,-2.4,-14,3.9,1.8%,-3
CCN(CC)C(=O)CN1CCC(c2nc3cc(C)c(C)cc3[nH]2)CC1,-6,3.4,6,0.8,-0.1%,-8
COc1ccc(NC(=O)C2CCCN2C(=O)NC2CCCCC2)cc1 (stereo not given),-20,-3.7,0,-0.8,1.9%,0
Cc1cc(C)c2nc(Cl)c(Cl)nc2c1,5,-0.2,14,-0.2,2.7%,-2
COc1ccc(-n2c(SC)nc(O)cc2=O)cc1,15,-2.4,1,-0.4,4.3%[38.3 µM],-5
COC(=O)c1sccc1S(=O)(=O)N(CC(=O)Nc1ccc(C)c(F)c1)c1ccc(C)c(C)c1,-8,.,.,2.6,-0.8%,.
COCCn1c(CN2CCN(C(=O)c3ccco3)CC2)nc2c1c(=O)n(C)c(=O)n2C,6,3.2,-18,0.1,0.0%,-4
CCCN(CC1CC1)c1cc2c(c3c1ccn3C)C1CCC2C1 (stereo not given),2,-4.5,?,-0.1,?,-15
CC(C)[C@H](NC(=O)N1CCn2c1nc1ccccc12)C(=O)NCc1ccccc1Cl,14,-5.1,-3,1.8,1.8%,-15
CCC(CC)C(=O)NCCc1cc2ccc(C)cc2[nH]c1=O,12,3.8,1,-0.5,-0.1%,-3
Cc1ccc(OCCN2C(=O)c3ccccc3C2=O)c([N+](=O)[O-])c1,2,-5.5,-4,-0.2,4.8%,-6
O=C(Nc1nccs1)NC1CCCCC1,4,2.9,-2,-0.3,.,-14
O=C(NCCc1ccccc1)C1CCN(c2ncccn2)CC1,-12,-5.8,-2,0.1,-2.6%,0
O=S(=O)(c1ccc(Cl)cc1)N1CCN(c2nc(C(F)(F)F)nc3ccccc23)CC1,-10,0.5,0,-0.5,-0.6%,0
CC(C)(C)OC(=O)NCc1ccc(NC(=O)c2nc[nH]c2C(=O)Nc2cc(Br)ccc2F)cc1,-9,-6.6,-4,0.1,?,-7
O=c1c(-c2ccc3c(c2)OCCO3)coc2c(CN3CCOCC3)c(O)ccc12,-9,-3.7,-5,0.0,-1.0%,-2
CC(C)=CCc1c(C)nc2ccccc2c1C(=O)O,-6,0.9,5,-0.6,3.1%,5
Cc1cccc(N2C(=O)C(CC(=O)Nc3ccc(Cl)cc3)N(Cc3ccco3)C2=O)c1 (stereo not given),39,.,.,-0.3,0.8%,.
CC(=O)C1=C(C)Nc2ncnn2C1c1cccc(O)c1 (stereo not given),.,-0.1,2,.,0.4%,6
Cc1cccn2c(=O)c3cc(C(=O)Nc4ccc(Cl)c(Cl)c4)sc3nc12,-2,.,.,2.4,2.9%,.
Cc1scc(C(=O)N/N=C/c2ccco2)c1C,13,-2.6,-3,-0.7,-3.8%,-5
Cc1ccc(SCc2noc(C(=O)NC(C)C)c2C(=O)O)cc1C,-2,2.5,-4,-0.9,0.4%,-6
Cc1cccc(Nc2nnc(SCC(=O)c3c(N)n(C4CC4)c(=O)[nH]c3=O)s2)c1C,-9,4.7,2,-0.7,2.6%,17
CCOC(=O)c1sc(NC(=O)CSc2nccc(C)n2)nc1C,-8,0.3,4,0.3,1.5%,2
COc1ccc(C(=O)N2CCN(C3CCCCC3)CC2)cc1OC,6,-4.9,2,0.4,3.8%,-4
O=C(COc1ccc2ccccc2c1)NCC1CCCO1 (stereo not given),2,-4.7,14,-0.4,-1.4%,-3
CCn1c(SCC(=O)Nc2ccccc2)nnc1C1CCCCC1,18,1.5,5,-0.5,0.9%,-14

# Screens: PubChem, National Center for Advancing Translational Sciences (NCATS)
